LANA-H2B inh: blocks KSHV LANA binding to histone H2A/H2B. cell-free LANA-H2A/H2B peptide, fluorescence polarization. inhibition, % (no concentration beside the values). 0.6% of 320,000 active. AID 2629; in the data active = inhibition mostly above about 10%, no sharp cut-off; inactive = mostly below about 6.7%;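 note: stock transfer was 7.5 nL into about 10 µL; 0% = median of vehicle wells and 100% = median of positive control wells; one replicate is shown; the record names a cut of 25% in any replicate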
Vif A3G: inhibitors of Vif binding to APOBEC3G peptide, primary screen, biochemical, TR-FRET, GST-Vif 1-94, biotin-A3G peptide, dose response retest (AID 1117319). TR-FRET GST-Vif / biotin-A3G peptide binding; higher % means a stronger effect; test concentration not given here; strong numbers were not always called active. inhibition, %; hits with a dose series show IC50 in µM. 0.57% of 260,000 active;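 active = above the screen mean plus three standard deviations and confirmed in dose response; inconclusive = results disagree or hit not tested in dose response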;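 note: Vif residues 1-94 fused to GST binding biotinylated APOBEC3G peptide 110-148; 0% = full assay without inhibitor and 100% = GST in place of GST-Vif; retest series ran down from 100 µM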
UCH37 DUB inh: human UCH37 deubiquitinating enzyme inhibition. 0.33% of 330,000 active. inhibition, % (no concentration beside the values). AID 588478. purified proteasome/UCH37, Ub-AMC cleavage fluorescence. Q9Y5K5;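 active = mean of two replicates above 20%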;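 note: 0% = compound-free wells with enzyme and 100% = wells lacking proteasome; stock transfer was 100 nL into about 20 µL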
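Schedule: 30 min plus 25 min, room temperature / Material: human UCH37 within purified proteasomes / Technique: AMC fluorescence intensity at 355/460 nm / Buffer or medium: pH 7.4 Tris-HCl (50 mM) with ovalbumin, ATP-MgCl2, DTT / Controls: wells without proteasome as full block, compound-free enzyme plus substrate as uninhibited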
HNF4A DNA FP: change in binding of human HNF4 alpha to DNA | AID 1224865 | 0.3% of 360,000 active | activity change, % at 10 µM | P41235 | HNF4a-FITC DNA binding, fluorescence polarization, 1 h; in the data active = activity change above about 30%, passing the limit was not always enough;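 note: controls were the assay level and a saturating level of protein; the project sought stronger binding though the title names inhibitors; some compounds called inactive have numbers as strong as hits; positive values seem to mean higher polarization but the record does not say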
Target sequence (P41235 whole entry, looked up): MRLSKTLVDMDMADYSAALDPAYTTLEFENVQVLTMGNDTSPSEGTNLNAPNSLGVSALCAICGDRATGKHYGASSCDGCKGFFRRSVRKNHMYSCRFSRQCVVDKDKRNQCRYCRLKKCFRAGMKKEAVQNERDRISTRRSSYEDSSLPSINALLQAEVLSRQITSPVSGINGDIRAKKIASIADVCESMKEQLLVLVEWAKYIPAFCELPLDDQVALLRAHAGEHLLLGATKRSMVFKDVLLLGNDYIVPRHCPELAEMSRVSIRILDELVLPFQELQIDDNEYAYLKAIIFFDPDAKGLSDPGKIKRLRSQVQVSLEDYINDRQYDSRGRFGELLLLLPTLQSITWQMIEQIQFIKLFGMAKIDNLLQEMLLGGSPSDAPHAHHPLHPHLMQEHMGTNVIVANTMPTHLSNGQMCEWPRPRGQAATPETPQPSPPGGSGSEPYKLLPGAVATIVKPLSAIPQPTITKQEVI
A1 inh: inhibitors of the anti-apoptotic protein A1, read as caspase activation. MEF A1-2A-BIM cells, Caspase-Glo 3/7 luminescence, 3 h; percent of clofoctol response, vehicle zero. caspase activation, % (no concentration beside the values). 0.066% of 330,000 active. AID 2462;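 active = over half of replicate activation scores above 10%, or exactly half above 10 with the replicate mean above 10; inconclusive = replicate mean below 10 yet half the replicates above 10; inactive = over half of replicates below 10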;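 note: wells of about 30 µL received 50 nL stock; many hits fall short of the cut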
Ecoli growth: blocks Escherichia coli growth; AID 1053175; OD600, 23 h; hits give low values; 0.21% of 330,000 active; OD600 absorbance (no concentration beside the values);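 active = OD600 absorbance below the run mean of sample wells minus 3.6 SD, in any replicate, cut at about 0.56 in these data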;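 note: stock transfer was 300 nL into about 60 µL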
B2AR ag: human beta-2 adrenergic receptor agonism by FAP | Am2.2-beta2AR cells, FAP receptor internalization, flow cytometry; reference of the scale not given here | response, % (no concentration beside the values) | P07550 | 0.43% of 340,000 active;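 active = response above a set limit, near 3 SD of response in nonfluorescent compounds, cut at about 42% in these data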;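 note: stock transfer was 100 nL into about 11 µL; a reference agonist was the positive control; negative values mostly stem from fluorescent compounds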
Target sequence (P07550 whole entry, looked up): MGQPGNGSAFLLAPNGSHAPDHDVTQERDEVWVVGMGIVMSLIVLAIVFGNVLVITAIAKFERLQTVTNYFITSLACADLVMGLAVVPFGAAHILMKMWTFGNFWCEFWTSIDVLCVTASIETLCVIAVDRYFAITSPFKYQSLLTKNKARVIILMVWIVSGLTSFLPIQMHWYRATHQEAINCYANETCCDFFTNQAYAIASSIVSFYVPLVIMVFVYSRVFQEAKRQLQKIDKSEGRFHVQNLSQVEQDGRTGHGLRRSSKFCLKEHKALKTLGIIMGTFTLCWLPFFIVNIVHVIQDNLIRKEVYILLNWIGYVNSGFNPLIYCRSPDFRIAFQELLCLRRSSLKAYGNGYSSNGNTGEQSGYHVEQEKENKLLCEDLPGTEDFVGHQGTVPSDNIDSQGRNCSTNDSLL
* = called active by the depositor; ? = inconclusive; . = not tested or not shown.

The line under a structure holds: LANA-H2B inh	Vif A3G	UCH37 DUB inh	HNF4A DNA FP	A1 inh	Ecoli growth	B2AR ag
CCCCn1nnc(NC(=O)c2sc3cc(Cl)ccc3c2Cl)n1
    -2.6	-33%	-0.1	-0.7	0.0	0.66	-4
Cn1cccc1-c1cc(C(=O)N/N=C/c2ccc(F)cc2)[nH]n1
    6.9	.	.	4.2	0.5	.	4
CCCCC(=O)Nc1ccc2c(c1)nc1n2CCOC1
    -3.1	-4%	1.2	-0.1	-0.6	0.72	-6
O=c1c(-c2cc3ccccc3o2)[n+]([O-])c2ccccc2n1OCc1ccccn1
    3.8	68%	-6.4	-3.8	-4.5	0.71	39
CCOP(=O)(OCC)C(NC(=O)c1cc([N+](=O)[O-])cc([N+](=O)[O-])c1)C(F)(F)F (stereo not drawn)
    -3.6	8%	1.1	7.8	0.4	0.67	6
O=C(COc1ccc(C(=O)c2ccccc2)cc1)NCC1CCCCC1
    1.6	-5%	3.6	-1.4	0.0	0.65	-13
Cc1noc(C)c1C(=O)NC(Cc1c[nH]c2ccccc12)C(=O)O (stereo not drawn)
    2.1	-3%	3.4	-3.7	2.2	0.71	-3
COc1ccc(/C=N/NC(=O)CNC(=O)c2ccc(S(=O)(=O)N3CCOCC3)cc2)cc1OC
    -0.6	?	.	-0.1	-1.1	.	-1
CC(=O)N1CCN(S(=O)(=O)c2cccc(C(=O)NNC(=O)COc3ccc(F)cc3)c2)CC1
    4.1	23%	0.6	0.0	-0.7	0.69	-1
O=C(CC1NCCc2ccccc21)Nc1ccc(Oc2ccccc2)cc1 (stereo not drawn)
    -4.7	11%	2.0	5.5	-2.4	0.62	-9
CC(=O)O[C@H]1C[C@@]2(C)[C@@H](C[C@@H](O)[C@H]3[C@@]4(C)CC[C@@H](O)[C@@H](C)C4CC[C@@]32C)/C1=C(\CCC=C(C)C)C(=O)O (stereo partly drawn)
    -21	2%	2.4	0.1	.	.	1
CCOc1ccc(S(=O)(=O)Oc2ccc3ccccc3c2)cc1
    5.3	-6%	2.2	-1.2	0.0	0.69	-15
CCN(CC)CCCNC(=O)CCC(=O)NNc1nc2ccccc2c2nc(C)nn12
    -0.1	19%	4.4	2.2	0.4	0.74	3
O=C(CSc1nnc(NCc2ccccc2)s1)c1ccco1
    -9.6	4%	2.2	-0.9	-0.6	0.7	-1
Cc1cccc(OCC(=O)NNC(=O)CCCCC(=O)NNC(=O)COc2cccc(C)c2)c1
    2.6	3%	0.4	-1.3	0.0	0.71	-3
Cc1ccccc1-c1nc(CS(=O)CC(=O)NCc2ccccn2)c(C)o1 (stereo not drawn)
    4.5	.	2.4	2.7	0.2	0.67	2
C/C(N)=C(/C#N)C(=O)COC(=O)c1cc2c(s1)CCC(C)C2 (stereo not drawn)
    1.4	.	.	-1.1	0.4	.	3
O=C1NC(=O)c2c(Br)c(Br)c(Br)c(Br)c21
    .	-98%	2.3	0.6	.	0.64	12
Cc1ccc(C)c(N2CCN(C(=O)c3ccc(CS(=O)Cc4ccc(Cl)cc4)o3)CC2)c1 (stereo not drawn)
    7.7	.	1.8	1.1	-0.4	0.62	1
CC(C)C(=O)N[C@H]1CCC2C3CC=C4C[C@@H](O)CC[C@]4(C)C3CC[C@@]21C (stereo partly drawn)
    4.0	-6%	0.9	2.1	0.6	0.69	-5
CC(C)Oc1ccc(C(=O)Nc2nnc(SCC(=O)N3CCOCC3)s2)cc1
    -1.2	.	4.3	-0.9	-3.1	0.7	-6
CN1CCC(N(C)S(=O)(=O)c2ccc(Cl)cc2)CC1
    4.7	.	2.1	1.1	0.6	0.69	18
COC(=O)c1c(NC(=O)CN2CCC(C)CC2)c2c(C)cccc2n1C
    .	-1%	-2.9	.	.	0.66	.
COc1cc2ccccc2cc1C(=O)Nc1ccccc1N1CCCC1
    -2.3	6%	-4.9	0.6	0.2	0.71	9
COC(=O)c1ccc(C2c3c(oc4cc(C)c(C)cc4c3=O)C(=O)N2CCCN(C)C)cc1 (stereo not drawn)
    -0.4	4%	3.5	.	0.7	0.76	.
c1cc2c(nn1)CCc1nonc1-2
    2.1	25%	3.7	0.9	0.5	0.77	13
FC(F)(F)c1cnc(NNC(=S)Nc2ccccc2Cl)c(Cl)c1
    -0.7	21%	1.8	0.7	0.5	0.63	14
O=C(CNC(=O)c1ccccc1Cl)Nc1ccc(F)cc1
    -2.5	10%	-1.8	-1.8	0.8	0.64	-7
Cc1ccc(C(=O)O)cc1NC(=S)NC(=O)C(c1ccccc1)c1ccccc1
    -3.0	2%	2.4	1.7	2.6	0.72	23
COC(=O)c1cc(NC(=O)c2cccc(C(F)(F)F)c2)c(=O)oc1C
    1.2	-14%	0.7	1.7	-0.5	0.7	-10
CCCCn1c(N)c(N(Cc2ccccc2OC)C(=O)CN2C(=O)NC3(CCCC3)C2=O)c(=O)[nH]c1=O
    6.2	1%	-7.2	0.2	0.6	0.67	-1
O=C(COc1ccccc1)NNC(=O)c1cc2ccccc2oc1=O
    -2.8	.	.	0.2	0.6	.	1
N#Cc1nc(-c2ccc(OCc3ccccc3)cc2)oc1N1CCC(C(N)=O)CC1
    2.2	-2%	0.8	3.0	0.0	0.75	7
COc1ccccc1NC(=O)CSc1nccn1Cc1ccc(F)cc1
    -0.8	.	0.3	0.8	-0.4	0.69	0
Cc1ccc(S(=O)(=O)NCCCCCC(=O)NCCc2ccccc2)cc1
    1.7	1%	-3.7	1.0	-0.3	0.65	-5
CC(C)(C)C(=O)Nc1cccc(C(=O)Nc2cc(C(=O)O)cc(C(=O)O)c2)c1
    2.3	5%	2.1	-1.6	0.4	0.68	-11
CCn1c(C)cc(=O)cc1-c1ccc(Cl)cc1
    -10	-9%	0.7	1.4	-0.2	0.68	3
O=C(Nc1ccc(S(=O)(=O)Nc2nccs2)cc1)c1cccc(S(=O)(=O)N2CCOCC2)c1
    0.4	3%	1.9	3.3	0.6	0.7	-2
CCN(CC(=O)Nc1c(F)cccc1F)C(=O)CCNC(=O)c1ccco1
    .	1%	-0.9	-8.3	.	0.7	-1
Nc1ccccc1-c1nc2ccccc2c(=O)o1
    0.4	16%	-81	1.1	-2.0	0.69	6

Exported as labelled records: two of the compounds above.
O=C(CNC(=O)c1ccccc1Cl)Nc1ccc(F)cc1
  LANA-H2B inh: -2.5	Vif A3G: 10%	UCH37 DUB inh: -1.8	HNF4A DNA FP: -1.8	A1 inh: 0.8	Ecoli growth: 0.64	B2AR ag: -7

Cc1ccc(C(=O)O)cc1NC(=S)NC(=O)C(c1ccccc1)c1ccccc1
  LANA-H2B inh: -3.0	Vif A3G: 2%	UCH37 DUB inh: 2.4	HNF4A DNA FP: 1.7	A1 inh: 2.6	Ecoli growth: 0.72	B2AR ag: 23

(continued)
The line under a structure holds: LANA-H2B inh	Vif A3G	UCH37 DUB inh	HNF4A DNA FP	A1 inh	Ecoli growth	B2AR ag
O=C(COC(=O)c1ccncc1)Nc1cccc(Cl)c1
    2.3	1%	-0.9	12	0.0	0.73	-5
COc1ccccc1NC(=O)/C(C#N)=C/c1ccc(OCCN2CCOCC2)c(OC)c1
    5.9	.	-15	-1.2	-0.9	0.73	4
CCO[C@H]1OC(C(N)=O)=C[C@@H](C2CC2)[C@@H]1CCCO
    1.0	.	-0.2	.	-0.5	0.79	.
Cc1[nH]c(=O)[nH]c(=O)c1S(=O)(=O)N1CCCC(C(=O)NCCc2ccccc2)C1 (stereo not drawn)
    9.8	67%	-0.5	5.0	0.2	0.72	-16
c1ccc(OCCOCCN2CCc3ccccc3C2)cc1
    6.7	-8%	2.5	1.6	0.5	0.67	4
O=C(NC1CCCc2ccccc21)C1CCCO1 (stereo not drawn)
    1.7	16%	-0.2	-0.8	1.3	0.67	0
O=C1OCCN1CCN(CN1C(=O)CCC1=O)CN1C(=O)CCC1=O
    1.5	7%	2.7	-2.3	0.5	0.71	-2
COc1ccc(C)cc1S(=O)(=O)N(CC(=O)O)c1ccc(C)cc1
    2.0	13%	-0.4	1.5	-0.1	0.67	12
CC(C)CCNC(=O)NC(=O)COC(=O)CNC(=O)C1CCCCC1
    -3.7	-2%	1.0	0.1	0.5	0.67	-2
Cc1sc2nc(CSCC(=O)N(CCC#N)c3ccccc3F)[nH]c(=O)c2c1C
    .	1%	-3.3	2.7	.	0.64	4
O=C(Cc1cccc(NC(=O)C2CCCN(C(=O)C3CCCCC3)C2)c1)Nc1ccc(C(=O)N2CCCCC2)cc1 (stereo not drawn)
    .	.	-0.8	1.4	.	0.68	-3
Cc1ccc(S(=O)(=O)n2cccc2CO)cc1
    -5.0	.	3.3	-2.5	0.3	.	0
COc1ccc(Cn2c(=O)[nH]c3cc(C(=O)N4CCN(Cc5ccccc5)CC4)ccc3c2=O)cc1
    -1.4	-4%	1.4	-4.4	-0.4	0.72	9
Cc1cccc(OCC(=O)N2CCN(c3nnc(-c4ccccc4)c4ccccc34)CC2)c1
    1.1	-10%	1.4	4.7	0.3	0.64	-6
O=C1c2ccccc2S(=O)(=O)c2cc(C(=O)N3CCN(c4ccccc4)CC3)ccc21
    -0.6	.	4.9	-1.9	-0.4	0.68	-2
COc1cccc(NC(=O)COC(=O)C2=NN(c3ccccc3)C(=O)CC2)c1
    -0.6	-1%	2.6	-1.8	0.9	0.71	-3
COc1cccc(NC(=O)C(C)(C)C)c1
    -1.6	.	1.7	1.9	0.0	0.68	-4
CC1CCN(C(=O)Cn2c(=O)n(-c3ccc(F)cc3)c(=O)c3sccc32)CC1
    -0.6	-6%	0.8	-0.7	0.4	0.69	-6
Cc1cccc(NC(=O)c2ccc(Cl)c(S(=O)(=O)N3CCCC3)c2)n1
    -1.5	.	4.0	-1.7	-6.7	0.68	-2
OC1(CNCc2cn[nH]c2-c2cc3ccccc3o2)CCCCC1
    -2.1	?	2.4	-0.9	0.0	0.68	-2
Cc1ccc(C)c(NC(=O)CSc2nnc(CNC(=O)c3ccco3)n2C)c1
    -2.1	4%	4.6	0.0	-0.7	0.64	2
Cc1ccc(CN2CC(C(=O)N3CCN(S(=O)(=O)c4c(F)cccc4F)CC3)CC2=O)cc1 (stereo not drawn)
    -0.3	4%	4.8	3.0	0.8	0.7	17
Cc1ccc(N2C(=O)c3ccc(N)cc3C2=O)cc1C
    -5.1	-2%	-15	-5.7	-8.3	0.69	-1
CCCOc1nc(SCCC)nc2c1cnn2-c1ccccc1
    -4.3	-3%	3.8	-2.8	0.9	0.61	5

High-throughput results deposited in PubChem by several laboratories.
